FGF22 binding: FGF22 (human) thermal shift binding | Q9HCT0 | calls only at 9.99 µM | recombinant FGF22 thermal shift, SYPRO orange fluorescence; percent of sucrose octasulfate shift, DMSO zero | 1.5% of 340,000 active;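 active means melting point raised past a set limit in the mean and every replicate; inconclusive means no clear call; three in four hits are not shown here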
Target sequence (Q9HCT0 whole entry, looked up): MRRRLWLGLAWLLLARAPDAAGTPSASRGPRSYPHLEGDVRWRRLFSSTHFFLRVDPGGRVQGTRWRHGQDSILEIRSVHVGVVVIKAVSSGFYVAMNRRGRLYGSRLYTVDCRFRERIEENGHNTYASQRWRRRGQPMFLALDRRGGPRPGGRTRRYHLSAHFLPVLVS
RanGTP-Imp inh: disruptors of Ran-importin-beta complex formation – biochemical, FRET, CFP-Ran, YFP-importin-beta, homogeneous, primary screen; cell-free CFP-Ran/YFP-importin-beta FRET ratio; inhibition, % (test concentration not listed); 1.1% of 300,000 active; AID 2216;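 active means most replicates above 15%; inconclusive means exactly half above 15%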;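 further: 0% = DMSO wells and 100% = Ran loaded with GDP instead of GTP; wells of about 40 µL received 100 nL stock; the first replicate is given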
UCH37 DUB inh: human UCH37 deubiquitinating enzyme inhibition; purified proteasome/UCH37, Ub-AMC cleavage fluorescence; AID 588478; Q9Y5K5; inhibition, % (concentration not given with the values); 0.33% of 330,000 active;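 active means mean of two replicates above 20%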;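 further: 0% = compound-free wells with enzyme and 100% = wells lacking proteasome; stock transfer was 100 nL into about 20 µL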
Target sequence (Q9Y5K5 whole entry, looked up): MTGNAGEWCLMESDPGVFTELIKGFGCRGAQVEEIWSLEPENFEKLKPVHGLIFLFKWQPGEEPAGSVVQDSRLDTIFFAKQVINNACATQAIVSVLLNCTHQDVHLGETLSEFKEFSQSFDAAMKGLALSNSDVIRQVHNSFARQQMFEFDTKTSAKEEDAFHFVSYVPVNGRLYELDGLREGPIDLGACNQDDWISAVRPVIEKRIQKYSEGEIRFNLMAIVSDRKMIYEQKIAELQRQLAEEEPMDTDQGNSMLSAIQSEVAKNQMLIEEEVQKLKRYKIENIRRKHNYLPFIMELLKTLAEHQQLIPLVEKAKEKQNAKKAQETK
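Material: Human UCH37 enzyme supplied as purified proteasome complex | Schedule: 30 min preincubation with enzyme, 25 min cleavage at room temperature | Detection: AMC fluorescence 355/460 nm | Measure: % inhibition of Ub-AMC cleavage fluorescence | Controls: Wells without proteasome as full block, compound-free enzyme plus substrate as uninhibited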
Ecoli growth: E. coli growth inhibition | Escherichia coli growth, OD600, 23 h; stronger effect = lower value | OD600 absorbance (test concentration not listed) | 0.21% of 330,000 active;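 active means OD600 absorbance below the run mean of sample wells minus 3.6 SD, in any replicate, cut at about 0.56 in these data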;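 further: stock transfer was 300 nL into about 60 µL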
Vif A3G: inhibitors of Vif binding to APOBEC3G peptide, primary screen, biochemical, TR-FRET, GST-Vif 1-94, biotin-A3G peptide, dose response retest (AID 1117319) | one-dose inhibition, %; IC50 in µM for titrated hits | TR-FRET GST-Vif / biotin-A3G peptide binding; higher % means a stronger effect; test concentration not given here; strong numbers were not always called active | 0.57% of 260,000 active;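 active means above the screen mean plus three standard deviations and confirmed in dose response; inconclusive means results disagree or hit not tested in dose response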;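 further: Vif residues 1-94 fused to GST binding biotinylated APOBEC3G peptide 110-148; 0% = full assay without inhibitor and 100% = GST in place of GST-Vif; retest series ran down from 100 µM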
MLL AF4-AF9 inh: blocks AF4 peptide binding to human AF9; P42568; AlphaScreen, biotin-AF4 peptide binding to FLAG-AF9; inhibition, % at 10 µM; 0.47% of 350,000 active; AID 651704;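 active means every replicate reaching a set inhibition limit, whatever the replicate mean, cut at about 25% in these data; inconclusive means mean inhibition reaches that limit but some replicates miss it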;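 further: 0% = plate neutral control median and 100% = total signal loss; the record names both 10 and 1 µM as test concentration; the first replicate is given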
Target sequence (P42568 whole entry, looked up): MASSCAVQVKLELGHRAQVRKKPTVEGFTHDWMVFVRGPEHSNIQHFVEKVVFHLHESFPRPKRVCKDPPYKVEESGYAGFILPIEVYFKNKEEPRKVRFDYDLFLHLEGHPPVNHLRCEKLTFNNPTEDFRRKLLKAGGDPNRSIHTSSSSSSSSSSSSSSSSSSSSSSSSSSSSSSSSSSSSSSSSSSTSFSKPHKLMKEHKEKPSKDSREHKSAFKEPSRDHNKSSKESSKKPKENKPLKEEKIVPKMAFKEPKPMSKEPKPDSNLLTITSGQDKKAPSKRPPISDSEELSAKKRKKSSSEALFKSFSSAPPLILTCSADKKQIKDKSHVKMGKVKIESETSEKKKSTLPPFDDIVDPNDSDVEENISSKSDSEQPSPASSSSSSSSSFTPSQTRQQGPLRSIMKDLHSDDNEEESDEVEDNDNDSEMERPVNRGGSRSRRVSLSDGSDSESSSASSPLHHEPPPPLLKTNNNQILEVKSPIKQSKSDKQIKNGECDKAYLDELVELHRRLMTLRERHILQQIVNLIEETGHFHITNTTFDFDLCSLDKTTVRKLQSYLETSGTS
HNF4A DNA FP: change in binding of human HNF4 alpha to DNA; P41235; HNF4a-FITC DNA binding, fluorescence polarization, 1 h; activity change, % at 10 µM; 0.3% of 360,000 active; AID 1224865; in the data active means activity change above about 30%, passing the limit was not always enough;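 further: controls were the assay level and a saturating level of protein; the project sought stronger binding though the title names inhibitors; some compounds called inactive have numbers as strong as hits; positive values seem to mean higher polarization but the record does not say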
Active calls of the source: *; i = inactive; ? = inconclusive; · = not tested or not shown; & = joins results of further samples.

SMILES	FGF22 binding	RanGTP-Imp inh	UCH37 DUB inh	Ecoli growth	Vif A3G	MLL AF4-AF9 inh	HNF4A DNA FP
Cc1c(C(=O)N2CCN(c3ccccc3)CC2)sc2nc3n(c(=O)c12)CCC3	i	1.4	4.4	0.67	·	-2.1	0.6
COC(=O)c1ccc2c(c1)c(C#Cc1ccccc1)c(-c1ccccc1)n2C	i	·	·	·	·	-5.9	-5.2
O=C(CSC1=NCCS1)Nc1ccc(F)cc1	i	0.5	3.4	0.63	3%	-3.3	-11
CN1CCN(c2ccc(NC(=O)c3ccc(Oc4ccccc4)cc3)cc2)CC1	i	?	6.0	0.6	·	14	6.0
CCOC(=O)N1CCN(c2nc(-c3ccc(OC)cc3)no2)CC1	·	3.3	-0.5	0.66	-2%	·	-3.4
C/C=C\C=C/C(=O)Nc1cccc(C2=NOC3(C2)C[C@@H](C(N)=O)N(C(=O)/C=C/C=C\C)C3)c1 (stereo partly drawn)	·	1.8	2.3	·	·	·	-41
COc1cc(NS(=O)(=O)c2ccc(C)cc2C)cc(OC)c1OC	·	-2.2	-1.7	0.73	7%	·	-1.0
OC(CN1C2=NCCN2c2ccccc21)c1ccccc1 (stereo not drawn)	i	1.1	4.8	0.64	29%	-32	-0.7
Cc1ccc(C(=O)NCc2cccnc2)cc1S(=O)(=O)Nc1ccccc1	·	-1.8	2.1	0.62	-5%	-2.6	4.3
CC[C@H](C)[C@@H](C(=O)N1CCNCC1)n1cc([C@@H](N)Cc2ccc(O)cc2)nn1	i	2.1	0.0	·	-6%	-1.9	-11
COC(=O)c1ccc(-c2ccco2)n1Cc1cc(C)ccc1C	·	2.4	-9.8	0.69	16%	·	-2.5
Cc1cccc(C(=O)N[C@H](C(=O)Nc2ccc(C)c(S(=O)(=O)N(C)C)c2)C(C)C)c1	i	-1.2	0.3	0.73	-8%	?	1.6
Cc1ccc(N2CCN(CCCN3C(=O)C4CCCN4C3=O)CC2)cc1 (stereo not drawn)	i	2.1	6.5	0.65	?	-2.5	2.2
COc1ccc(NC(=O)/C=C/c2ccc3c(c2)OCO3)cc1	i	0.2	1.4	0.67	·	-0.4	-4.4
COc1ccc(-c2csc(/N=C/N(C)C)n2)cc1OC	i	4.1	·	·	-7%	-1.4	-1.2
Cc1nc(SCc2nc3ccc([N+](=O)[O-])cc3[nH]2)c2oc3ccccc3c2n1	i	·	2.1	0.67	·	3.6	-0.6
O=C(NCCCCO)c1ccc2c3c(cccc13)CC2	·	0.6	-23	0.71	-4%	-3.7	1.5
CCCC12CN3CCN(CC(C3)/C1=N\NC(=O)c1ccccc1N)C2	·	-0.5	·	·	12%	·	2.0
CC1(C(=O)O)CCC(C(=O)Nc2ccc(Cl)c(Cl)c2)C1(C)C (stereo not drawn)	i	2.4	5.1	0.71	·	-1.7	5.0
COC(=O)c1sc(NC(=O)COc2c(C)cccc2C)nc1C	·	-0.8	1.3	0.66	29%	-0.5	-3.7
NC(=O)NC(Cc1ccccc1)c1ccccc1 (stereo not drawn)	i	7.5	2.4	0.64	3%	5.1	-1.5
CC(=O)N1CCN(Cc2nc3cc(NC(=O)Cn4nc(C)c5ccccc5c4=O)ccc3n2C)CC1	·	-2.9	1.8	0.62	3%	·	1.4
CC(=O)SC1CC(=O)C=C2CCC3C4CCC(=O)OC4(C)CCC3C21C (stereo not drawn)	i	·	0.6	0.7	-2%	-6.5	4.0
Cn1c(N)c(C(=O)COC(=O)c2ccc(Br)o2)c(=O)n(C)c1=O	·	0.1	-1.3	0.69	-4%	·	-0.6
CCOCCCn1c(=S)[nH]c2cc(C(=O)NC3CCCCC3C)ccc2c1=O (stereo not drawn)	i	1.3	3.3	0.71	·	6.3	-2.4
CC1CCN(C(=O)COc2ccc(S(=O)(=O)N3CCCC3)cc2)CC1	i	2.0	3.1	0.67	·	0.3	-4.8
Cc1cnc(C(=O)OCC(=O)N(C)CC(=O)Nc2ccccc2Cl)cn1	i	0.6	0.3	0.7	-6%	-1.4	1.5
Cc1cc(C)n(C(=O)/C(C#N)=N\Nc2ccccc2[N+](=O)[O-])n1	i	-0.4	·	·	-6%	-0.3	0.8
CCc1ccccc1Cn1c(=O)oc2cccnc21	i	-1.1	-29	0.66	-5%	-3.6	-1.2
Cc1cccc(-c2nc(=S)c3c(o2)CCCC3)c1	·	-2.2	3.5	0.66	-3%	·	-3.1
CC1(C(=O)NCc2ccccc2)Cc2c(-c3cccc(C(N)=O)c3)ccnc2O1 (stereo not drawn)	i	·	·	·	·	2.1	-1.0
Cc1cccc(C)c1OCC(=O)N/N=C/c1ccncc1	i	-1.5	·	·	·	-0.9	0.3
COc1ccc(C)cc1NC(=O)CNC(C)C(=O)Nc1cc(Cl)ccc1Cl (stereo not drawn)	i	-3.7	2.7	0.7	·	-9.3	-2.9
C[C@@H]1CN([C@@H](C)CO)C(=O)CCCn2nncc2CO[C@@H]1CN(C)S(=O)(=O)c1cccc(C#N)c1	i	·	·	·	·	-6.7&-1.7	-0.3
c1coc(-c2nn3c(Cn4nnc5ccccc54)nnc3s2)c1	·	-3.5	4.0	0.69	0%	·	2.1
Clc1ccc(/C=N/c2c(-c3ccc(Cl)cc3)nc3n2CCS3)cc1	·	2.4	·	·	8%	·	0.3
CC1C(=O)N2CCCc3cc(NC(=O)c4ccccc4F)cc1c32 (stereo not drawn)	i	-3.5	3.2	0.66	-7%	-8.0	-2.5
O=C(Cc1n[nH]c(=O)c2ccccc12)Nc1cc(C(F)(F)F)ccc1-n1cncn1	i	·	1.6	0.65	1%	1.1	2.1
Cc1cc(C(=O)CSc2ncccn2)c(C)n1Cc1ccco1	i	-2.9	7.0	0.68	-3%	-1.8	3.4
Cc1cccc(C)c1NC(=O)CCS(=O)(=O)c1ccc(Br)cc1	i	-1.2	1.5	0.7	-1%	-0.8	3.4

Compounds listed so far containing an NH in an aromatic ring:
SMILES	FGF22 binding	RanGTP-Imp inh	UCH37 DUB inh	Ecoli growth	Vif A3G	MLL AF4-AF9 inh	HNF4A DNA FP
Cc1nc(SCc2nc3ccc([N+](=O)[O-])cc3[nH]2)c2oc3ccccc3c2n1	i	·	2.1	0.67	·	3.6	-0.6
CCOCCCn1c(=S)[nH]c2cc(C(=O)NC3CCCCC3C)ccc2c1=O (stereo not drawn)	i	1.3	3.3	0.71	·	6.3	-2.4
O=C(Cc1n[nH]c(=O)c2ccccc12)Nc1cc(C(F)(F)F)ccc1-n1cncn1	i	·	1.6	0.65	1%	1.1	2.1

Profiles from above. Values in the order: FGF22 binding, RanGTP-Imp inh, UCH37 DUB inh, Ecoli growth, Vif A3G, MLL AF4-AF9 inh, HNF4A DNA FP
OC(CN1C2=NCCN2c2ccccc21)c1ccccc1 (stereo not drawn) across the screens: i, 1.1, 4.8, 0.64, 29%, -32, -0.7
COc1ccc(NC(=O)/C=C/c2ccc3c(c2)OCO3)cc1 across the screens: i, 0.2, 1.4, 0.67, ·, -0.4, -4.4

Going on with the list:
SMILES	FGF22 binding	RanGTP-Imp inh	UCH37 DUB inh	Ecoli growth	Vif A3G	MLL AF4-AF9 inh	HNF4A DNA FP
Cc1cccc(Oc2ncnc3onc(C)c23)c1	·	-1.6	5.7	0.76	-2%	·	-3.6
COc1ccc(S(=O)(=O)Nc2cc(C)on2)cc1	i	3.4	2.6	0.67	-5%	2.8	-2.5
COc1cc2c(c(OC)c1OC)-c1ccc(SC)c(=O)cc1C(NC(=O)C(F)(F)F)CC2 (stereo not drawn)	i	·	·	·	-4%	3.4	-2.5
CC1(C)Cc2nc3oc4c(=O)n(CC(=O)Nc5cccc(Cl)c5)cnc4c3cc2CO1	i	0.6	0.7	0.68	?	·	2.1
COc1ccc(-c2coc3c(C(=O)Nc4cccnc4)cccc23)c(C)c1	i	·	·	·	·	-1.1	-0.6
O=C(NC(Cc1c[nH]c2ccccc12)C(=O)O)c1ccc2c(c1)OCO2 (stereo not drawn)	i	-5.4	1.8	0.64	-1%	-1.7	4.4
Cc1cccc(OCC(=O)NC(=S)NNC(=O)c2ccncc2)c1	i	4.5	·	·	-26%	-6.2	-1.1
COc1ccccc1CN(C)C(=O)CN1CCN(S(=O)(=O)c2ccc3c(c2)OCCCO3)CC1	i	·	0.1	0.63	8%	9.4	-1.7
Cn1c(SCCN2CCCC2)nnc1C1CCN(S(=O)(=O)c2cccc(F)c2)CC1	i	1.7	2.7	0.69	·	-0.7	-1.1
NC(=O)NCC12CC3CC(CC(C3)C1)C2	·	-2.8	0.0	0.75	?	·	-2.9
Cc1ccnc(NC(c2ccncc2)c2c(C)[nH]c3ccccc23)c1 (stereo not drawn)	·	-4.1	4.7	0.67	·	·	-0.5
CCCc1ccc(OCc2nc(-c3ccc(NC(=O)c4cccs4)cc3)no2)cc1	·	?	-9.3	0.72	·	·	2.9
O=[N+]([O-])c1ccccc1Oc1ccccc1Cl	i	-1.8	1.1	0.67	·	-2.0	2.7
Cc1noc2ncnc(Oc3cc(Cl)ccc3Cl)c12	i	?	0.4	0.67	·	-8.8	1.6
COc1cccc(CNC(=O)C2CCN(S(=O)(=O)c3ccc4c(c3)NC(=O)C(C)S4)CC2)c1 (stereo not drawn)	i	2.6	5.4	0.7	·	0.1	-0.3
COc1ccc2c(c1)CC/C(=C/c1cc(OC)c(OC)c(OC)c1)C2=O	i	-0.7	-0.1	0.67	12%	-4.8	0.6
CCOc1cccc(N2CCN(CCNC(=O)Nc3ccc(C)cc3)CC2)c1C	i	-0.8	1.0	0.63	·	2.2	2.0
O=C(COc1ccccc1)NNc1nc2ccccc2s1	i	-7.5	0.2	0.64	-4%	·	4.8
CC(=O)Nc1ccc(S(=O)(=O)NCC2CCCO2)cc1 (stereo not drawn)	i	3.7	0.9	0.69	·	-1.0	-0.1
CC(C)(C)c1ccc(C2SCC(=O)N2c2cccc(C(=O)O)c2)cc1 (stereo not drawn)	i	7.5	1.4	0.69	-3%	0.0	1.5
O=C(NC1CCN(Cc2ccccc2)CC1)c1cccc(S(=O)(=O)Nc2cc(C(F)(F)F)ccc2Cl)c1	·	-3.2	2.5	0.66	·	·	0.3
Cc1ccc(Cl)cc1NC(=S)NCc1cccn1C	·	-3.2	3.7	0.64	·	·	-0.2
Cn1c(=O)c([N+](=O)[O-])c(NCC(O)c2ccccc2)c2ccccc21 (stereo not drawn)	·	-2.3	-0.1	0.66	·	·	-3.9
CN(C)C(=O)C1Cc2ccccc2CN1S(=O)(=O)c1cccs1 (stereo not drawn)	i	-0.2	1.2	0.71	·	-1.4	0.0
O=C(O)CCC(=O)N1CCN(c2ccccn2)CC1	·	-3.0	·	·	25%	·	-1.8
CC(C)(C)C(=O)Nc1ccccc1C(=O)NCc1ccco1	·	1.8	-0.9	0.72	-4%	·	-1.8
CC(C)(C)NC(=O)C(c1ccc(O)cc1)N(C(=O)CCC(=O)Nc1nccs1)c1cccc(F)c1 (stereo not drawn)	·	6.9	4.4	0.71	-10%	-3.2	1.0
CCN(CC)c1nc(Oc2ccc(C(=O)NN)cc2)nc(Oc2ccc(C(=O)NN)cc2)n1	i	-3.0	-0.8	0.68	·	-11	-0.7
CC1(C)C(=O)Nc2ccccc2N1C(=O)COC(=O)c1cc(S(=O)(=O)N2CCOCC2)ccc1F	i	1.3	2.3	0.73	-11%	0.9	0.9
O=C(COC(=O)c1ccccc1Br)NC1CCCC1	i	1.1	0.6	0.7	·	1.0	1.4
CCCCCCCCNC(=O)CC(NS(=O)(=O)c1ccc(NC(C)=O)cc1)C(C)C (stereo not drawn)	·	-1.5	-0.6	·	-5%	·	-0.2
CCOC(=O)N1CCN(C(=O)Cc2ccc(-n3c(=O)[nH]c4ccccc4c3=O)cc2)CC1	·	-2.6	0.3	0.71	?	·	12
COc1ccc(CNC(=O)c2ccc3oc(C(C)C)nc3c2)cc1	i	3.7	·	·	·	-3.8	0.2

An excerpt. The share of hits here may be higher or lower than overall.
